Screens (PubChem BioAssay)
Six1-Eya2 blk: blocks human Six1 binding to Eya2; Q15475+O00167; AlphaScreen GST-Six1/His-Eya2 binding, biochemical; stronger effect = lower value; control for the full effect not named in the record; activity change, % (concentration not given with the values); 360,000 compounds, 0.56% hits; in the data active = activity change below about -65%; inconclusive = about -30% to -65%; inactive = above about -30%; also: % is scaled to controls: 0 for no effect and ±100 for the full control effect
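AlphaScreen with GST-Six1 and His-Eya2 (5X mix: 250 nM and 500 nM), glutathione donor and nickel acceptor beads; buffer 50 mM Tris pH 8.0, 300 mM NaCl, 1 mM TCEP; 1 h at 37 C in the dark.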
TRPV1 PAM: enhances activation of the human vanilloid receptor TRPV1 | Q8NER1 | TRPV1-expressing cells, Fluo-8 calcium influx, capsaicin EC20 potentiation; host cell line not named in the record; control for the full effect not named in the record | potentiation, % at 8.33 µM | 320,000 compounds, 0.02% hits; active means potentiation above 80%; inconclusive means 30% to 80%; inactive means below 30%; also: 0% is about no effect
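Fluo-8 calcium influx in TRPV1-expressing cells, kinetic read (ex 480/em 520 nm). Compound added and read 3 min for agonist activity, followed by capsaicin at EC20 final and 2 min further read for enhancement.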
CtBP-E1A blk: CtBP/E1A binding inhibition; AlphaScreen GST-E1A/His-CtBP binding, 1536-well; stronger effect = lower value; control for the full effect not named in the record; activity change, % (no concentration beside the values); 340,000 compounds, 0.49% hits; AID 651724; in the data active means activity change below about -65%; inconclusive means about -30% to -65%; inactive means above about -30%; also: % is scaled to controls: 0 for no effect and ±100 for the full control effect
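Steps: dispense buffer (Tris pH 8.0, NaCl 300 mM, TCEP 1 mM, BSA, Tween 20); add 5X protein mix (GST-E1A, His-CtBP, 125 nM each); pin 23 nL compound; 2 h at 37 °C, dark; add 5X beads (50 ug/mL); 1 h; read.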
PINK1 modulator: modulators of PINK1 expression. PINK1 immunofluorescence, high-content cytometry, 24 h. Potency, µM (doses to about 76.6 µM), for the others: top-dose activation (PINK1 increase), most hits filed as activators. 410,000 compounds, 0.2% hits. AID 624263; active = well fitted activation curve with a large enough effect; inconclusive = small, poorly fitted or top-dose-only effect; inactive = flat fitted curve, though single readings scatter; cell line not stated here;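 also: potency is read from the fitted curve at half-maximal effect; % of control where 0% means no effect; nearly all actives have a fitted effect of over 65% in size; a mitochondrial uncoupler was the plate control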
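Stable cell line treated 24 h with compounds at 5 concentrations (CCCP controls), then fixed and immunostained for PINK1 plus nuclear and cell stains; PINK1 immunofluorescence quantified by laser-scanning microplate cytometry.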
Sfp PPTase inh: blocks B. subtilis Sfp PPTase activity. Q9F4F7. Biochemical Sfp PPTase activity, qHTS. Potency, µM, for the others: max response, negative = inhibition, hits mostly inhibitors. 310,000 compounds, 3.5% hits. AID 1490; active = well fitted inhibition curve with a large enough effect; inconclusive = small, poorly fitted or top-dose-only effect, or another doubt; inactive = no such curve, though single readings can be large or run the other way;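 also: the enzyme is Sfp with the accession as filed and its product quenches rhodamine fluorescence; potency is read from the fitted curve at half-maximal effect; 0% = enzyme reaction without inhibitor and -100% = no enzyme wells; top concentration of the series not given in the record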
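Step 1, compound plus 15 nM Sfp-PPTase, 15 min, room temperature. Step 2, add rhodamine-CoA (5 uM) and BHQ-2-YbbR (12.5 uM). Step 3, read 525/598 nm fluorescence at 0 and 30 min.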
D2 agonist: human D2 receptor agonism in beta-arrestin assay. P14416. DiscoveRx PathHunter D2 beta-arrestin, luminescence, 90 min; 100% = 57 uM dopamine signal. activation, % (test concentration not listed). 360,000 compounds, 0.084% hits. AID 624465; in the data active = activation above about 40%; inconclusive = about 15% to 40%; inactive = below about 15%; also: compound concentration not given in the record; the text of the record calls up to 30% inactive
Target sequence (P14416 whole entry, looked up): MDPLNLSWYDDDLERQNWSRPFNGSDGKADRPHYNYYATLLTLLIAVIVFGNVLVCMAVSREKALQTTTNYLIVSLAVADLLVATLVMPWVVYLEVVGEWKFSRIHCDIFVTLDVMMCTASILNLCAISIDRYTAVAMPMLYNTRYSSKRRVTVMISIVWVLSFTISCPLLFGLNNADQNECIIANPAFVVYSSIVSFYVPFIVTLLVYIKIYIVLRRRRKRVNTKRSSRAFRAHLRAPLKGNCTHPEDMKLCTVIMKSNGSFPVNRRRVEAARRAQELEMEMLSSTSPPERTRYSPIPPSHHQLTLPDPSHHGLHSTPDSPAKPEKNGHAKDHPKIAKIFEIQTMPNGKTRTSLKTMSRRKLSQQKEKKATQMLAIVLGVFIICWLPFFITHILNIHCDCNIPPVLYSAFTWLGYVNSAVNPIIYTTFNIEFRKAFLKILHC
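Agonist mode: compounds alone added to overnight-plated D2 PathHunter cells for 90 min at 37 C, with 57 uM final dopamine (EC100) defining full response. Beta-arrestin recruitment detected by chemiluminescent reagent, read after 1 h at ambient temperature.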
D2 PAM: potentiates the human D2 dopamine receptor allosterically; potentiation, % (test concentration not listed); P14416; 360,000 compounds, 0.23% hits; DiscoveRx D2 beta-arrestin cells, luminescence, 90 min; 100% = 57 uM dopamine signal; active = potentiation of 50% or more; inconclusive = 30% to 50%; inactive = 30% or less;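 also: compound concentration not given in the record; tested on top of an EC20 dose of dopamine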
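D2 cells co-treated with compound plus 50 nM dopamine (EC20) for 90 min at 37 deg C to detect potentiation. Beta-arrestin recruitment was read as enzyme-fragment luminescence after 1 h at ambient temperature. Full response was set by 57 uM dopamine.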
An asterisk follows results filed as active; u = inconclusive; x = not tested or not shown; & = joins results of further samples; [ ] = another dose, or the depositor's remark.

The line under a structure holds: Six1-Eya2 blk | TRPV1 PAM | CtBP-E1A blk | PINK1 modulator | Sfp PPTase inh | D2 agonist | D2 PAM
- CC(=O)c1ccc(NC(=O)COC(=O)c2c[nH]c3ccccc23)cc1
 : -1.2 | 11.8 | 0.3 | 3.8% | x | 11.7 | 5.8
- O=C(CN1C(=O)c2ccccc2S1(=O)=O)Nc1cccnc1
 : -2.1 | 29.2 | 7.2 | 2.3% | 5.2% | -0.9 | -5.1&-3.2
- O=C1CC(c2ccc3ccccc3c2)NN1 (stereo not drawn)
 : 0.2 | 1.8 | 5.0 | 1.2% | x | -1.5 | -2.9
- Cc1nn(Cc2ccccc2)c(Cl)c1/C=N/NC(=O)c1cccnc1
 : 1.9 | -0.2 | x | -0.7% | 19.0% | 4.1 | -7.4
- Cc1onc(NC(=O)NC(=O)c2ccccc2F)c1Br
 : 2.8 | 3.5 | 2.7 | 2.5% | 12.6% | 1.8 | -19.1
- Fc1cccc(CN2CCN(C(=S)NCCc3ccccc3)CC2)c1
 : 0.9 | -4.2 | 11.1 | 1.1% | 24.5% | -1.3 | -10.1
- O=C(CSc1nnc(-c2cccnc2)o1)Nc1ccc(F)cc1
 : 0.9 | x | 2.3 | 0.2% | x | -1.4 | -8.9
- O=C(c1cnsn1)N1CCCC(Nc2ccc(F)c(F)c2)C1 (stereo not drawn)
 : 3.0 | -5.3 | 1.2 | 1.2% | 1.4% | -2.7 | -16.4
- CC1=CC=CC2=N/C(=N\S(=O)(=O)c3ccc(F)cc3F)c3ccccc3CN12
 : -7.1 | -3.2 | 4.4 | 0.8% | 5.7% | -1.7 | -9.8
- CN(C)C(=O)Cn1c(=O)n(C)c2ccccc21
 : 3.3 | -4.8 | 0.4 | -1.1%[38.3 µM] | 17.0% | 1.2 | -2.8
- CCOCCCn1c(=S)[nH]c2ncccc2c1=O
 : -2.6 | 23.1 | 0.4 | -0.7% | u | -0.9 | -8.0
- O=S(=O)(c1cccc(F)c1)N1CCN(c2nc(-c3cccnc3)nc3ccccc23)CC1
 : -1.7 | x | 0.6 | 2.1% | x | 0.3 | 5.7
- Cc1cc(C)c(C)c(Oc2ncnc(N)c2[N+](=O)[O-])c1
 : 2.6 | 5.6 | 8.3 | 1.7% | -1.9% | -0.1 | -8.6
- CCCNC(=O)C1(C)CCN(Cc2cc(C(F)(F)F)ccc2Cl)C1 (stereo not drawn)
 : 3.3 | x | -0.1 | -0.2% | x | -2.3 | -15.4
- O=C(COc1ccc2ccccc2c1)N1CCN(c2ccccc2O)CC1
 : -8.4 | 0.4 | -2.2 | -0.4% | 6.8% | 3.6 | 15.3
- COc1ccc(/C=C(\NC(=O)c2ccc(C)cc2)C(=O)NCCCN2CCOCC2)cc1OC
 : 2.5 | 3.9 | 3.9 | 0.7% | -1.8% | 2.7 | -2.9
- CCN(CC)CCN(C(=O)C1=COCCO1)c1nc2cc(C)cc(C)c2s1
 : -3.2 | 2.7 | -1.0 | 4.0% | -9.9% | 1.2 | -40.2
- COC(=O)C1=C(C(=O)OC)[C@@H]2N(Cc3ccccc3)c3ccccc3[C@@]23C[C@@H](C(=O)OC)N(C(=O)C2CCC2)C3=N1
 : 0.8 | x | -1.4 | 2.9% | -4.3% | -2.1 | -7.6
- CC(=O)N1CCN(CC(=O)Nc2cc(S(=O)(=O)N3CCOCC3)ccc2C)CC1
 : -8.2 | -2.9 | -2.8 | 1.6% | u | -5.2 | 6.9
- COc1ccc(Nc2nc(-c3cccs3)nc3ccccc23)cc1
 : -4.4 | -2.0 | -6.7 | -0.1% | -5.3% | -0.6 | 0.0
- COc1ccc(CN2C(=O)C(C)Oc3ccccc32)cc1 (stereo not drawn)
 : -3.8 | 19.1 | x | -0.9% | -1.0% | -2.8 | -23.6
- CCN(CC)C(=O)[C@H]1CC(CC(=O)NCc2ccc(OC)c(OC)c2)C(=O)N2CCc3c([nH]c4ccc(OC)cc34)[C@]12C (stereo partly drawn)
 : -1.8 | x | -3.0 | -0.7% | x | -1.2 | -8.9
- O=c1c2ccccc2c(C=NCCCN2CCOCC2)c(O)n1Cc1ccc2c(c1)OCO2
 : -16.9 | -9.5 | -5.2 | 2.2% | -7.0% | -3.6 | -11.5
- Cc1ccc(NCC(=O)N=Nc2c(O)[nH]c3ccc([N+](=O)[O-])cc23)cc1
 : -2.9 | -0.8 | 0.0 | -0.8% | -51.0% | -3.6 | -11.9
- CCOc1ccccc1-c1nnc(SCC(=O)NC2CC2)n1CC
 : 41.0 | -0.4 | 13.2 | 0.4% | 22.6% | -1.5 | -18.7
- Oc1ccccc1C=NNC(=S)Nc1ccc(F)cc1
 : -76.0* | x | -92.2* | 11.9% | x | -7.6 | -12.6
- O=C(COc1ccccc1)NCc1nnc2c3ccccc3c(-c3ccccc3)nn12
 : -3.6 | -14.0 | x | -1.6% | -5.8% | -4.0 | -8.5
- Cc1cc(-c2n[nH]c(=S)n2/N=C/c2ccc(C)o2)n[nH]1
 : -9.8 | 0.8 | -9.2 | -1.5% | -14.8% | -23.0 | -13.2
- C1CCc2c(nc3nnnn3c2N2CCOCC2)C1
 : 1.5 | 1.2 | 7.3 | -0.1% | 10.7% | -1.5 | -14.2
- Cc1csc(=O)n1CCC(=O)OCC(=O)c1ccc(Br)cc1
 : 0.0 | -5.2 | 20.5 | 0.6% | x | -8.1 | -33.3

Reformatted as labelled records: 2 of the compounds above.
SMILES: COc1ccc(CN2C(=O)C(C)Oc3ccccc32)cc1 (stereo not drawn)
  Six1-Eya2 blk = -3.8 | TRPV1 PAM = 19.1 | CtBP-E1A blk = x | PINK1 modulator = -0.9% | Sfp PPTase inh = -1.0% | D2 agonist = -2.8 | D2 PAM = -23.6
SMILES: CCN(CC)C(=O)[C@H]1CC(CC(=O)NCc2ccc(OC)c(OC)c2)C(=O)N2CCc3c([nH]c4ccc(OC)cc34)[C@]12C (stereo partly drawn)
  Six1-Eya2 blk = -1.8 | TRPV1 PAM = x | CtBP-E1A blk = -3.0 | PINK1 modulator = -0.7% | Sfp PPTase inh = x | D2 agonist = -1.2 | D2 PAM = -8.9

(cont.)
The line under a structure holds: Six1-Eya2 blk | TRPV1 PAM | CtBP-E1A blk | PINK1 modulator | Sfp PPTase inh | D2 agonist | D2 PAM
- CCNC(=S)Nc1ccc(Cl)cc1Cl
 : 12.4 | 8.1 | 0.9 | 1.0% | 20.1% | 1.4 | -10.3
- CC1(C)CC(Cc2cccc(C(F)(F)F)c2)N(C(=O)OC(C)(C)C)C1 (stereo not drawn)
 : 12.2 | x | 0.0 | 6.2% | x | -2.2 | 4.6
- Cc1c(Cl)cccc1NC(=O)COC(=O)c1ccc(CN2CCCC2=O)cc1
 : 5.9 | 0.8 | 6.3 | 0.7% | x | 2.2 | -1.3
- Cc1ccc(C(=O)NC23CC4CC(CC(C4)C2)C3)c(Cl)c1
 : -2.0 | 1.6 | x | 5.0% | 2.5% | 1.6 | -2.1
- NC(=O)c1ccccc1NC(=O)c1ccc2c(c1)OCO2
 : -17.1 | -9.1 | x | -1.0% | -1.9% | -0.3 | 0.7
- CC(C)Nc1ncnc2c1ncn2[C@H]1CN(Cc2ccc(F)cc2)C[C@@H](CO)O1
 : 2.5 | x | 5.1 | 1.5% | x | -2.3 | 10.6
- COc1ccc(S(=O)(=O)Cc2ccc(C(=O)NCCc3cc(OC)ccc3OC)o2)cc1
 : -18.2 | 1.0 | 5.7 | 2.5% | -12.3% | -1.9 | 0.9
- COC(=O)CCC(=O)c1oc2ccc(OC)cc2c1N
 : -8.8 | -6.6 | -8.0 | 0.1% | 6.3% | -0.9 | 2.1
- CCOC(=O)c1c(-c2ccc(C)cc2)csc1NC(=S)NC(=O)c1ccccc1
 : 3.4 | 24.3 | -0.6 | u | 21.0% | -2.0 | -18.2
- COc1ccc2oc(C(=O)OCC(=O)NCCc3ccccc3)c(C)c2c1
 : 2.3 | 13.1 | -1.1 | 18.9% | x | -2.3 | 0.3
- CC(NC(=O)[C@H](C)NC(=O)c1ccco1)c1ccc(S(N)(=O)=O)cc1 (stereo partly drawn)
 : 2.8 | 11.0 | 6.5 | -0.7% | 17.5% | -5.1 | -2.7
- CSc1ccc(CN2CCCCCC2)cc1
 : -11.9 | -5.9 | 0.7 | -0.8% | 10.0% | -4.2 | -10.3
- COC(=O)c1ccccc1-n1c(CCC(=O)O)ccc1-c1ccccc1
 : -7.9 | -5.3 | x | 0.3%&2.6% | 18.3% | 2.1 | -2.8
- CN(C)c1nnnn1Cc1ccccc1
 : 10.7 | -0.1 | 6.2 | 1.4% | 22.7% | -3.6 | -2.5
- Cn1c(Cn2nnc3ccccc32)nnc1SCC(=O)c1ccccc1F
 : -2.9 | 9.6 | 7.7 | 1.5%[38.3 µM] | 50.1µM* | -3.0 | -12.3
- Cc1nc2sc(C(c3ccc(Cl)cc3)N3CCN(c4ccccc4F)CC3)c(O)n2n1 (stereo not drawn)
 : -12.5 | 8.3 | -5.8 | 3.1% | 1.4% | -1.1 | -5.4
- CCOC(=O)N1CCN(C(=O)c2ccc(OC)cc2)CC1
 : 10.2 | 7.9 | x | -0.8% | 12.4% | 12.8 | -10.5
- CCOC(=O)c1sc2ccc(S(=O)(=O)N3CC(C)CC(C)C3)cc2c1N (stereo not drawn)
 : 1.2 | 3.1 | 0.4 | u | 3.2% | -2.8 | -14.7
- Cn1c(=O)cc(OCCCC(=O)NCc2ccccn2)c2ccccc21
 : -1.9 | 15.2 | -13.1 | 0.1% | 5.9% | -2.4 | -13.6
- O=C(COC(=O)c1cccnc1)NC1CCCc2ccccc21 (stereo not drawn)
 : 1.0 | -1.7 | -1.0 | 2.5% | 5.4% | -3.9 | -1.9
- CCC(CC)c1nnc(NC(=O)CCS(=O)(=O)Cc2ccccc2)s1
 : 3.7 | 2.5 | -2.2 | 5.1% | 63.1µM* | -3.3 | -3.9
- CC[n+]1ccc2cc(OC)c(OC)cc2c1Cc1ccc(OC)c(OC)c1
 : -1.4 | -12.9 | -4.8 | 1.1% | u | 0.2 | -4.7
- C=CCC1(C)C(=O)N(c2ccccc2)c2ccccc21 (stereo not drawn)
 : 18.4 | -23.0 | -8.9 | 22.5% | -0.8% | -4.2 | -11.1
- COc1ccc(C)cc1NC(=O)CN1C(=O)COc2ccc(C)cc21
 : 0.0 | -9.4 | -19.5 | -0.3% | 5.2% | 8.7 | -8.9
- CCC(=O)N(Cc1ccco1)Cc1cc2cc3c(cc2[nH]c1=O)OCO3
 : -14.7 | -2.7 | 0.4 | 2.6% | 6.8% | -2.5 | -25.2
- Cc1ccc(NC(=S)c2ccncc2)cc1
 : 1.0 | -7.6 | x | 2.3% | 11.3% | -3.3 | -14.1
